Screens: PubChem BioAssay, National Center for Advancing Translational Sciences (NCATS)
Marburg entry inh: inhibitors of Marburg virus binding or cell entry; Marburg virus pseudotyped entry inhibition, cell reporter; control for the full effect not named in the record; about a third of the inactives were read at about 46 µM; Potency, µM (highest dose often 37.8 µM), inactives show at the top dose activity change, negative = inhibition, usual class: inhibitors; actives 1.8% (n = 300,000); AID 540276; active = well fitted inhibition curve with a large enough effect; inconclusive = small, poorly fitted or top-dose-only effect, or effect the other way; inactive = flat fitted curve, though single readings scatter; tested in HEK293 cells; about a fifth of its hits are not listed in these tables; note: % is set by controls: 0 for no effect and ±100 for the full control effect; luciferase read-out
StopGo reporter: lowers the luciferase signal of an FMDV 2A StopGo reporter; Potency, µM (doses to about 57.9 µM), inactives show at the highest dose signal change, negative = less light; actives 1.2% (n = 410,000); human cells with a luciferase reporter of 2A StopGo recoding; control for the full effect not named in the record; active = well fitted falling curve with a large enough effect; inconclusive = small, poorly fitted or top-dose-only effect; inactive = no such curve, though single readings can be large or run the other way; tested in HEK293T cells; note: % is set by controls: 0 for no effect and ±100 for the full control effect; nearly all actives have a fitted effect of over 45% in size; luciferase light after 4 h
SARS PLP yeast: SARS-CoV PLP inhibition in yeast; actives 0.19% (n = 330,000); S. cerevisiae expressing SARS-CoV PLpro, growth rescue; control for the full effect not named in the record; Potency, µM (top dose mostly 32.9 µM), without a hit: at the highest dose activity, positive = growth rescue; note: 0% is about no effect; nearly all actives have a fitted effect of over 55% in size; growth read by luminescence after 48 h
RE007 growth inh: less growth of the S. pombe RE007 Vpr strain; S. pombe RE007 Vpr strain, BacTiter-Glo ATP luminescence, 24 h; control for the full effect not named in the record; Potency, µM (top dose mostly 92.2 µM), for inactives: at the top dose activity change, negative = less growth; actives 0.21% (n = 360,000); active = well fitted falling curve with a large enough effect; inconclusive = small, poorly fitted or top-dose-only effect; inactive = no such curve, though single readings can be large or run the other way;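 note: % is set by controls: 0 for no effect and ±100 for the full control effect; nearly all actives have a fitted effect of over 50% in size; the assay follows cell death caused by Vpr and the record does not say whether a fall means rescue or toxicity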
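Fission yeast RE007 carrying one integrated HIV-1 vpr copy, seeded at OD 0.01 in PMG+AL medium with 23 nL pinned compound. Grown 24 h at 30 degrees; viability read by BacTiter-Glo luminescence after 5 min.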
Lassa entry inh: Lassa virus entry inhibition; Potency, µM (titrated, usually from 37.9 µM), for the others: at the top dose activity change, negative = inhibition, actives largely listed as inhibitors; Lassa virus pseudotype entry inhibition, cell reporter; control for the full effect not named in the record; actives 1.2% (n = 300,000); AID 540256; active means well fitted inhibition curve with a large enough effect; inconclusive means small, poorly fitted or top-dose-only effect, or effect the other way; inactive means flat fitted curve, though single readings scatter; tested in HEK293 cells; note: % is set by controls: 0 for no effect and ±100 for the full control effect; nearly all actives have a fitted effect of over 50% in size; luciferase read-out
Cruzain noTriton: inhibitors of Trypanosoma cruzi cruzain without detergent; P25779; Potency, µM, for inactives: max response, negative = inhibition, hits mostly inhibitors; purified cruzain, Z-FR-AMC fluorescence, no detergent; actives 2.3% (n = 200,000); active = well fitted curve in the direction sought with a large enough effect; inconclusive = small, poorly fitted or top-dose-only effect, or another doubt; inactive = no such curve, though single readings can be large; an effect the other way counts as inactive or inconclusive;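 note: plate controls were enzyme without inhibitor for no effect and buffer without enzyme for full effect; nearly all actives have a fitted effect of over 40% in size; top concentration of the series not given in the record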
Target sequence (P25779 123-467 limits assumed): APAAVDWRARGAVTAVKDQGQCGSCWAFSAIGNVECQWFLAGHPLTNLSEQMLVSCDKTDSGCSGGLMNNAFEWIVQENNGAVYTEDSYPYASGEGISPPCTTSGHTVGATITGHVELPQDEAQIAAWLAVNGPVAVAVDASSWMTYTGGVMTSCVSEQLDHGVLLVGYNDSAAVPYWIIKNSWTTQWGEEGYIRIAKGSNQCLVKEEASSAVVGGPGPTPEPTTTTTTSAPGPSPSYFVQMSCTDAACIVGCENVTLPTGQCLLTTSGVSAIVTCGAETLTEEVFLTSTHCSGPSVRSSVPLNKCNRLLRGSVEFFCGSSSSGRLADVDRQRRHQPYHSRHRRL
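Detergent-free condition (0.00005% Triton X-100) in acetate buffer pH 5.5 with DTT. 1.5 nM enzyme and compound were pre-mixed 15 min, then 2 uM Z-FR-AMC substrate added; reaction progress from fluorescence change between first and third reads (60 s).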
Cruzain Triton: blocks cruzain activity in presence of Triton detergent; actives 0.43% (n = 200,000); P25779; AID 1478; purified cruzain, Z-FR-AMC fluorescence, 0.01% Triton; Potency, µM, for inactives: max response, negative = inhibition, most hits filed as inhibitors; active = well fitted curve in the direction sought with a large enough effect; inconclusive = small, poorly fitted or top-dose-only effect, or another doubt; inactive = no such curve, though single readings can be large; an effect the other way counts as inactive or inconclusive;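 note: plate controls were neutral wells for no effect and buffer without enzyme for full effect; nearly all actives have a fitted effect of over 40% in size; top concentration of the series not given in the record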
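Read-out: AMC fluorescence (360 nm excitation, 450 nm emission), four reads over 2 min, first-to-third difference used. Conditions: cruzain 1.5 nM, Z-FR-AMC 2 uM, pH 5.5 acetate, 5 mM DTT, 0.01% Triton X-100.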
NS1 inh: influenza NS1 inhibition. AID 2326. S. cerevisiae slowed by influenza A NS1, growth recovery by OD600. Potency, µM (series often up to 46.1 µM), without a hit: top-dose activity, positive = more growth. actives 0.4% (n = 270,000); note: actives are rising curves; nearly all actives have a fitted effect of over 50% in size
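Recovery from NS1-induced slow growth read by OD600 in budding yeast switched to galactose assay medium (pH 6.0, -URA) at 1:100 dilution. Compound 23 nl per well; the matching strain lacking NS1 serves as control.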
An asterisk follows results filed as active; ? = inconclusive; nt = not tested or not shown; [ ] = another dose, or the depositor's remark. Unless noted, calls come from the whole dose curve; as a rule, active means well fitted rising curve with a large enough effect; inconclusive means small, poorly fitted or top-dose-only effect; inactive means no such curve, though single readings can be large or run the other way. Potency is the fitted concentration of half-maximal effect.

SMILES | Marburg entry inh | StopGo reporter | SARS PLP yeast | RE007 growth inh | Lassa entry inh | Cruzain noTriton | Cruzain Triton | NS1 inh
COc1ccc(C=C2C(=O)OC(C)(C)OC2=O)cc1OC | nt | -16% | -1% | -2% | nt | nt | nt | 4%
Cc1ccc(C)c(C(=O)CSc2nnc(C)s2)c1 | nt | 39%[activator] | -2% | -9% | nt | nt | nt | -6%
CCOc1ccccc1CNCCN1CCOCC1 | 6% | -6% | 2% | 3% | 3% | -11% | 5.9% | 0%
CCOC(=O)c1cc(C#N)c(Oc2cccc(C(F)(F)F)c2)nc1-c1ccccc1 | ? | -23% | 5% | 25% | ? | -17% | -2.9% | 6%
COc1ccc(NC2(c3ccc(Cl)cc3)C(=O)c3ccccc3C2=O)cc1 | 2% | -26% | -5% | 10% | -3% | -15% | -3.6% | 16%
Cc1ccc(SCC(=O)OCC(=O)N(C)CC(=O)Nc2ccccc2Cl)cc1 | ? | -14% | -1% | -5% | 7% | nt | nt | nt
O=C(CCN1C(=O)c2cccc([N+](=O)[O-])c2C1=O)Nc1nccs1 | ? | -11% | 2% | -4% | 6% | nt | nt | 8%
Cc1cc(C(=O)NCc2ccco2)on1 | nt | -9% | -3% | -2% | nt | -12% | -4.8% | 0%
COc1cc2c(cc1OC)-c1cc(Nc3ccc(F)cc3)nc(=O)n1CC2 | nt | -7% | -2% | 10% | nt | nt | nt | 2%
CCOc1ccc(NC(=O)Nc2ccon2)cc1 | nt | 0% | -7% | -20% | nt | nt | nt | -17%
CN1CCN(CCCNC(=O)c2cn(C)c3ccc(S(=O)(=O)N(C)C)cc3c2=O)CC1 | nt | -7% | -7% | -3% | nt | -1% | -0.6% | -4%
CCN(CC)c1ccc(N=Cc2c(O)n(Cc3ccco3)c(=O)[nH]c2=O)cc1 | 29%[14.2 µM] | -7% | 0% | 10% | -2% | nt | nt | 1%
Cc1cc(=O)oc2c(C)c(OCC(=O)N3CCC(C(=O)O)CC3)ccc12 | nt | -25% | 10% | 26% | nt | nt | nt | 7%
COCCN(C(C)=O)c1nnc(-c2cnccn2)s1 | 13% | -13% | 12% | 11% | 25% | 1% | -5.3% | -80%
Cc1cc(C)cc(N(CC(=O)Nc2cccc(C)n2)S(=O)(=O)c2c(C)noc2C)c1 | nt | -24% | 27% | 18% | nt | 18% | -7.5% | -27%
CCOC(=O)c1c(CN(C)C)n(-c2ccccc2)c2cc(Br)c(OC)cc12 | 10µM* | -19% | 1% | 1% | ? | -5% | -3.2% | -4%
COc1ccc(C)cc1-n1nnc(-c2nc(-c3ccccc3Cl)no2)c1N | nt | 29% | nt | nt | 3%[46.1 µM] | ? | -3.0% | nt
O=C1c2cc(S(=O)(=O)NCCCO)ccc2-c2ccc(S(=O)(=O)NCCCO)cc21 | 2% | 4% | 1% | 4% | 10% | 0% | -1.9% | -3%
CCOc1ccccc1CN1CCN(Cc2cccc3nonc23)CC1CCO (configuration not stated) | -19%[46.1 µM] | 4% | -1% | 0% | -12%[46.1 µM] | nt | nt | 10%
COc1ccc(C(=O)OC2=C(C(=O)c3ccccc3)N(C)S(=O)(=O)c3ccccc32)cc1OC | 15%[46.1 µM] | -21% | nt | nt | 6%[46.1 µM] | -2% | -2.5% | nt
CCOC(=O)C1=C(C)NC(=S)NC1c1ccc(-c2ccc(Cl)cc2)o1 (configuration not stated) | 13µM* | ? | -3% | 17% | -5% | ? | -3.8% | 23%
CCCN(CCC)CCCNC(=O)c1cn(CCOC)c(=O)c2c1c1ccccc1n2C | ? | 9% | 2% | -3% | -10% | 4% | -2.9% | 2%
Cc1ccc(-n2ccc(=O)c(C(=O)Nc3ccc(S(=O)(=O)Nc4nccc(C)n4)cc3)n2)cc1 | nt | 30% | -4% | 1% | nt | nt | nt | -9%
O=C(CCn1cccc1)NCc1ccccc1 | 22% | 4% | -4% | -17% | -2% | 2% | 1.8% | 10%
Cc1csc(CNC(=O)C2CCC(=O)N(CCCc3ccccc3)C2)n1 (configuration not stated) | nt | -16% | 9% | 3% | nt | nt | nt | 2%

(list continues)
SMILES | Marburg entry inh | StopGo reporter | SARS PLP yeast | RE007 growth inh | Lassa entry inh | Cruzain noTriton | Cruzain Triton | NS1 inh
CC(=O)c1cc2c(cc1N/C(=N/S(=O)(=O)c1ccc(Cl)cc1)c1ccc(F)cc1)OCO2 | nt | 9% | nt | nt | 10%[46.1 µM] | -1% | 1.4% | nt
CN(CC(=O)Nc1ccccc1Cl)C(=O)CSC(=S)N1CCCC1 | -11% | -7% | 9% | -5% | 5% | nt | nt | nt
Cc1ccc(C(=O)Nc2c(C)cc(-c3ccccc3)oc2=O)cc1 | -14%[46.1 µM] | -5% | 0% | -15% | 11% | nt | nt | nt
O=C(CCC1COc2ccccc2O1)Nc1cccnc1 (configuration not stated) | 16% | -20% | -4% | -7% | 2% | 9% | -6.8% | 3%
CN(C)C(=O)COc1ccc(C(=O)/C=C/c2cccnc2)cc1 | -1%[46.1 µM] | ? | 0% | -28% | 4% | nt | nt | 11%
CCCCC(=O)Nc1ccc(C(=O)NCCN2CCOCC2)cc1 | nt | -3% | 0% | -5% | nt | nt | nt | 16%
COc1cc2[nH]c(=O)n(CCCCCC(=O)NCCc3ccccc3)c(=O)c2cc1OC | 9%[46.1 µM] | -14% | nt | nt | ? | -1% | 0.5% | nt
CCCCCNC(=O)CCCCn1c(=O)[nH]c2cc(OCC)c(OCC)cc2c1=O | 3% | -1% | 0% | 22% | 0% | -3% | 3.5% | 1%
COc1ccc(Cl)cc1Nc1nc(C)cc(C)c1C(N)=O | -1%[46.1 µM] | -15% | 0% | 3% | 23% | -30% | -1.7% | 10%
C=C(C)CSc1nc(N)c2c(C)c(C)sc2n1 | 22% | nt | 20% | 11% | 0% | ? | 8.0% | -6%
Cc1nnc(NC(=O)C2COc3ccccc3O2)s1 (configuration not stated) | -13% | 32%[activator] | 2% | -13% | ? | 1% | 2.5% | -11%
CCOc1cc(/C=C2/NC(=S)NC2=O)ccc1OCc1ccc([N+](=O)[O-])cc1 | ? | ? | -2% | -18% | ? | ? | -6.0% | 6%
Cn1c(Cc2ccccc2)n[nH]c1=S | -10% | -20% | 20% | -2% | -13% | -1% | 1.7% | 7%
O=C1CC(N2CCSCC2)C(=O)N1CCc1ccccc1 (configuration not stated) | -1% | 0% | -4% | -1% | -2% | -14% | 1.4% | -1%
COc1ccc(NC(=O)c2nc(SCc3ccccc3F)ncc2Cl)cc1 | 10%[46.1 µM] | -23% | nt | nt | 0%[46.1 µM] | -3% | 1.9% | nt
Cc1ccc2[nH]c3c(c2c1)CN(C)CC3 | -2% | -1% | -4% | 5% | 5% | -19% | 0.1% | -1%
CCS(=O)(=O)N1CCCC(C(=O)NCc2ccc(C)cc2)C1 (configuration not stated) | 23% | 12% | -7% | 17% | 4% | 1% | 4.2% | -2%
Cc1nn(-c2ccccc2)c2nc(-c3ccco3)cc(C(=O)O)c12 | 6% | -14% | -2% | -24% | 3% | -9% | -5.5% | 13%
O=C1c2ccccc2C(=O)c2cc(N3CCCCC3)ccc21 | 4µM* | 10µM* | nt | -18% | 3.2µM* | nt | nt | nt
CCCCNC(=O)c1ccc(NS(=O)(=O)c2ccccc2)cc1 | ? | 15% | 4% | 4% | ? | 8% | -2.3% | 2%
CN(C)c1ccc(-c2nc3ccccc3n2C)cc1 | ? | nt | -11% | ? | ? | 3% | -6.4% | -82%
Cc1ccc(NC(=S)NNC(=O)C2CC2c2ccc(C)cc2)cc1 (configuration not stated) | -13% | ? | ? | 12% | ? | 2% | -4.1% | -6%
Cc1c(NC(=O)COC(=O)COc2ccc(Nc3ccccc3)cc2)c(=O)n(-c2ccccc2)n1C | ? | 4% | -4% | -5% | -10% | nt | nt | 9%
CCc1ccc(C(=O)c2c(N)c(-c3nc(-c4ccc5c(c4)OCO5)cs3)c3ccccn23)cc1 | -6%[46.1 µM] | 15% | nt | nt | -2%[46.1 µM] | 2.5µM* | -2.0% | nt
COc1ccc(N2CCN(C(=O)c3ccc(C)c(NC(=O)C4=C(C)OCCS4)c3)CC2)cc1 | nt | -10% | -4% | 4% | nt | nt | nt | -20%

(more compounds)
SMILES | Marburg entry inh | StopGo reporter | SARS PLP yeast | RE007 growth inh | Lassa entry inh | Cruzain noTriton | Cruzain Triton | NS1 inh
COc1cc2c(cc1OC)CN(C(=S)Nc1ccc(OC(F)F)cc1)CC2 | 23%[46.1 µM] | -24% | 1% | -5% | ? | nt | nt | nt
CCc1ccc(C(=O)N/N=C(\C)c2ccncc2)s1 | nt | 73%[activator] | -1% | -15% | nt | nt | nt | -3%
COc1ccccc1OCC(=O)Nc1cc(C)ccc1NC(=O)c1ccco1 | 22% | 2% | -2% | 14% | -13% | nt | nt | -7%
CCc1cccc2c(C(=O)COC(=O)c3ccc(O)cc3)c[nH]c12 | 2% | -3% | 3% | 10% | ? | ? | -3.3% | 15%
COC(=O)c1ccc(C(=O)NC2CCCc3c2cnn3-c2ccccc2F)nc1 (configuration not stated) | nt | -25% | -4% | -4% | nt | nt | nt | -7%
Cc1ccc(NC(=O)CC2Sc3ccc(C(F)(F)F)cc3NC2=O)cc1 (configuration not stated) | nt | -21% | nt | nt | -11%[46.1 µM] | -10% | 1.0% | nt
CC(C)Oc1ccc(NC(=O)c2ccncc2)cc1 | -7% | -21% | ? | -11% | -5% | -8% | -2.9% | 4%
Cc1ccc(-n2cccc2/C=N/n2cnnc2)cc1Cl | 1%[46.1 µM] | -20% | 1% | 19% | 19% | -6% | -3.2% | -3%
O=C(CNC(=O)c1ccccc1F)NCCOc1cccc(Cl)c1Cl | 3% | 9% | 5% | 14% | -1% | 8% | -1.9% | -5%
Cc1ccc(NC(=O)CSc2nccn2Cc2ccccc2)cc1C | 0% | 22% | -13% | -26% | ? | -5% | 0.0% | -59%
Nc1nnc(CCS(=O)(=O)c2ccc(Cl)cc2)s1 | 0% | nt | 5% | -9% | ? | 4% | 6.3% | 3%
COc1cc(CN2CCCC(CO)(Cc3ccccc3F)C2)ccc1O (configuration not stated) | nt | -11% | 2% | 1% | nt | nt | nt | -10%
